# Bioassay records as filed in PubChem.
# TSHR ag = agonists of human thyroid stimulating hormone receptor. P16473. HEK293-CNG-TSHR cells (CNG channel as cAMP sensor), membrane potential dye, cAMP. Potency, µM (series often up to 57.1 µM), inactives show at the top dose activation, hits mostly activators. 73,000 compounds, 0.48% hits. AID 926; active = well fitted activation curve of enough size with the parental cells flat; inconclusive = any curve in the parental cells; inactive = parental cells flat and receptor cells flat or falling; further: potency means the concentration at half of the fitted maximal effect; % of control where 0% means no effect; weak receptor curves with flat parental cells got no call and are not listed
# Target sequence (P16473 whole entry, looked up): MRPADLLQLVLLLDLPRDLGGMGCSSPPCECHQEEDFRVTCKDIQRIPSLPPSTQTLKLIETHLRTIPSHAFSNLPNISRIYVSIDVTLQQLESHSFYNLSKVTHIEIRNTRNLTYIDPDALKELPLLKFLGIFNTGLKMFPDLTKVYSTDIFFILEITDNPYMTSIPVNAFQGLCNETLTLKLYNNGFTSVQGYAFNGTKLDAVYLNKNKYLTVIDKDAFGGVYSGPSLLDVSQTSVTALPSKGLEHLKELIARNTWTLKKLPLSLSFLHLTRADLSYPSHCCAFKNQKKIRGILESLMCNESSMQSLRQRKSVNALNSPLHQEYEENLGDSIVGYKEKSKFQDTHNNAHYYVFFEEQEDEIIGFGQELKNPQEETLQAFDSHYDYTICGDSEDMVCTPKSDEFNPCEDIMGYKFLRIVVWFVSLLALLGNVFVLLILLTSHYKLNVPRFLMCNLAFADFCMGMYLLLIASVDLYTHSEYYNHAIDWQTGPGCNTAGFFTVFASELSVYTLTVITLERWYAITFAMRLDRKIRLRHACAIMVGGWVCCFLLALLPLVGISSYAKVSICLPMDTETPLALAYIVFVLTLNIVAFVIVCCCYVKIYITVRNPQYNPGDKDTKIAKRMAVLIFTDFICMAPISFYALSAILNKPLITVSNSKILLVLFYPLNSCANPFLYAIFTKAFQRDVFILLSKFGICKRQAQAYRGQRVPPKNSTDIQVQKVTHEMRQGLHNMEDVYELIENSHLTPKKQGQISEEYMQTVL
#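 HEK 293 cells stably expressing TSHR and a cAMP-gated CNG channel; parental CNG-only cells as counterscreen. Cells preloaded 60 min with membrane potential dye plus 100 uM RO 20-1724, then compound 30 min; fluorescence read at 590 nm.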
# A647 fluor = compound autofluorescence in A647 spectral region; Compound fluorescence, A647 channel (570/671 nm), Tris buffer; max dye-equivalent concentration, M; 59,000 tested, under 10 active; AID 592; active means above 1 µM dye equivalent; inconclusive means 0.1 to 1 µM; inactive means 0.1 µM or less;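 further: values scaled relative to a standard on each plate; highest value over a series up to 38 µM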
#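 Spectral profiling of library compounds in pH 8.0 Tris: 15 min room-temperature incubation, single ex/em pair (570/671 nm), response normalized to Alexa 647 equivalents.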
# A488 autofl = compound autofluorescence in A488 spectral region | compound autofluorescence, A488 spectral region, dye equivalency; active compounds read high | 59,000 compounds, 0.1% hits | AID 591 | max dye equivalency, M; active = above 10 nM dye equivalent; inconclusive = 1 to 10 nM; inactive = 1 nM or less; about half of its hits are not listed in these tables;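 further: highest value over a series up to 38 µM; compound alone in buffer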
#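 Read-out: relative fluorescence at 480/540 nm, expressed as Alexa 488 dye-equivalent concentration from a six-point A488 standard included per plate. Conditions: 100 mM Tris, pH 8.0; 15 min incubation, room temperature.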
# Resorufin fluor = resorufin region autofluorescence; Compound fluorescence, resorufin region 547/598 nm, buffer; active compounds read high; max dye-equivalent concentration, M; 59,000 compounds, 0.04% hits; active = above 10 nM dye equivalent; inconclusive = 1 to 10 nM; inactive = 1 nM or less; a few of its hits are not listed in these tables; further: highest value over a series up to 38 µM
#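 Dye-equivalent concentration values derive from comparing each well's 547/598 nm fluorescence against resorufin standards included on every plate. Incubation was 15 min at room temperature in 100 mM Tris, pH 8.0.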
# AID923 = qHTS Assay for Allosteric/Competitive Inhibitors of Caspase-1: Spectroscopic Profiling in AFC Spectral Region; compound fluorescence, AFC spectral region (405/520 nm); almost no hit is shown here; Potency, µM (top dose mostly 57.5 µM), without a hit: at the highest dose fluorescence increase, most hits filed as activators; 75,000 compounds, 1.1% hits; AID 923, 2007; active means well fitted activation curve with a large enough effect; inconclusive means small, poorly fitted or top-dose-only effect;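 further: potency means the concentration at half of the fitted maximal effect; 0% is about no effect; scaled to a free AFC standard on each plate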
#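 Baseline compound fluorescence (AFC region, 405 nm ex/520 nm em) taken from the intercept of kinetic reads with 50 nM caspase-1 and 5 uM Ac-WEHD-AFC; normalized to an on-plate AFC standard curve; compounds titrated up to 57 uM.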
# An asterisk follows results filed as active; i = inactive; ? = inconclusive; . = not tested or not shown; [ ] = another dose, or the depositor's remark. These rows are one share of the data; the hit share may differ from the screen's.
mol	AID923	Resorufin fluor	TSHR ag	A488 autofl	A647 fluor
O=C(CCCn1c(=S)[nH]c2ccc(Br)cc2c1=O)N1CCN(c2ccccn2)CC1	-0.5%	i	2%[11.4 µM]	i	5.4e-09
O=c1nc2ccccc2c2n1C[C@H](CN1CCN(c3ccccc3)CC1)N2	1.0%	.	1%	.	.
CCCCn1c(SCC(=O)Nc2cc(C)[nH]n2)nc2ccsc2c1=O	0.2%	i	?	i	2.3e-08
Cc1ccc(S(=O)(=O)NCCCN(C)C)cc1	-0.6%	i	2%	i	2.4e-08
Cc1ccc(/C(O)=C2/C(=O)C(=O)N(Cc3ccco3)C2c2cccs2)cc1 (stereo not given)	.	i	.	i	3e-09
c1ccc(CN2CCN(c3nc4ccccc4n4cnnc34)CC2)cc1	-1.5%	.	23%	.	.
O=C(C1CC1)N1CCc2cc(Br)cc(S(=O)(=O)NCC3COc4ccccc4O3)c21 (stereo not given)	0.5%	i	?	i	1e-09
Cc1ccc(-c2nnc3sc(CCc4ccccc4)nn23)cc1	-1.1%	i	?	i	1e-09
CCOCCCNC(=O)C1CCC(CNS(=O)(=O)c2ccc(F)cc2)CC1 (stereo not given)	-0.1%	i	-6%	i	2.6e-08
Cc1ccc(C(=O)N(Cc2nc(-c3ccc(C)cc3)no2)C(C)C)cc1	-0.1%	.	?	.	.
Nc1c2c(nc3ccccc13)N(C1CCCCC1)CC2	.	i	.	i	6.8e-08
Cc1nc(SCN2C(=O)c3ccccc3C2=O)n[nH]1	0.0%	.	4%[11.4 µM]	.	.
CC(=O)OC1CC(C)(C)N(OC(=O)c2ccccc2)C(C)(C)C1	-0.3%	i	?	i	1.7e-08
COCCn1cc(C(=O)N2CCC(C)CC2)c2c3ccccc3n(C)c2c1=O	-1.1%	i	6%	i	1e-09
O=C(CNC(=O)c1ccco1)OCc1ccc(C(=O)Oc2ccccc2)cc1	2.3%	i	-7%	i	1.4e-08
CCOC(=O)c1c(C)[nH]c(C)c1C(=O)COC(=O)c1cccc(S(=O)(=O)NC)c1	0.8%	i	-54%[inhibitor]	i	7.2e-09
CCOc1ccccc1CN(Cc1ccco1)S(=O)(=O)c1ccc(-n2cnnn2)c(OC)c1	1.2%	i	?	i	2.2e-09
COc1ccccc1Cn1c(CCCO)nc2ccccc21	1.2%	i	16%	i	7.7e-09
CNc1cc(-n2nc(C)cc2-c2ccccc2)ncn1	0.4%	.	-3%	.	.
Cc1ccccc1NC(=O)CSC(N)=O	-0.6%	i	-26%	i	1e-09
CN1C(=O)c2ccccc2C(C(=O)NCCCN2CCCC2=O)C1c1c[nH]c2ccccc12 (stereo not given)	-0.6%	i	-5%	i	3.5e-08
Brc1ccc(-c2cn3cccnc3n2)cc1	0.6%	i	0%	i	1e-09
C=C(c1ccc(O)cc1)c1ccc(O)cc1	0.8%	i	-5%	i	1e-09
CN(C)CCCOc1nn(Cc2ccccc2)c2ccccc12	-1.0%[25.7 µM]	i	-2%[25.6 µM]	i	2.3e-08
O=c1cc(N2CCc3ccccc3C2)[nH]c(=O)n1-c1ccc(Cl)cc1	-0.7%	i	0%	i	1e-09
O=C1CC(N2CCN(c3ccc(S(=O)(=O)N4CCOCC4)cc3)CC2)C(=O)N1Cc1ccccc1 (stereo not given)	0.5%	i	-2%	i	2.4e-09
CCc1ccccc1N1CSC2=C(C#N)C(c3cc(OC)c(OC)cc3OC)CC(=O)N2C1 (stereo not given)	0.9%	i	8%	i	3.6e-09
CC(C)Cn1c(N)c(C(=O)CSc2nnnn2-c2ccc(Cl)cc2)c(=O)n(C)c1=O	-0.3%	i	4%	i	1.9e-08
COc1ccccc1NC(=O)c1cccc(NC(=O)c2ccco2)c1	1.8%	i	-16%	i	9.3e-09
COc1cc(CC(=O)OC2CCOC2=O)cc(OC)c1OC (stereo not given)	-0.3%	i	4%	i	2.5e-09
CCNc1ncc2ncc(=O)n(Cc3cccs3)c2n1	6.4%	i	?	i	5.1e-09
O=C(O)[C@@H](c1ccccc1)[C@@H](C(=O)O)c1ccccc1	0.7%[11.5 µM]	i	-5%[11.4 µM]	i	3e-08
CCOC(=O)c1[nH]c(C)c(C(=O)Nc2ccc(C)cc2C)c1C	-3.1%	.	10%	.	.
CCOc1ccc(C(=O)N2CCCC2)cc1OC	0.1%	i	2%	i	9e-09
Cc1cc(C)cc(-n2ccnc2SCC(=O)Nc2nccs2)c1	-2.8%	i	-2%[11.4 µM]	i	1.4e-08
CC1CCc2nc(NC(=O)c3ccco3)sc2C1 (stereo not given)	-1.6%	i	-3%	i	3.3e-09
CCS(=O)(=O)N1CCC(c2nc(-c3ccc(C)cc3)no2)CC1	-0.5%	i	13%	i	3.4e-08
Cc1ccc(-c2cc(C(=O)NCCN3CCOCC3)no2)cc1	2.5%	i	-1%	i	3.7e-09
COc1ccc(CNC(=O)CCCNS(=O)(=O)c2cccc3nonc23)cc1	2.3%	i	-2%	i	1e-09
CCOc1cc(C2CC(=O)N3CN(C4CCCCC4)CSC3=C2C#N)ccc1O (stereo not given)	0.2%	.	5%	.	.
Nc1nnnn1/N=C/C(Br)=C/c1ccccc1	0.7%	i	-2%	i	1.9e-08
CCOC(=O)Cc1csc(NS(=O)(=O)c2ccc3c4c(cccc24)C(=O)N3CC)n1	8.9%	i	0%	i	6.4e-08
O=C(c1ccc(=O)oc1)N1CCCc2ccccc21	17%	i	.	i	1.2e-08
CC1CCN(C(=O)COC(=O)c2cc3ccccc3cc2O)CC1	0.8%	i	?	i	1.3e-09
CC(=O)Nc1ccc(C(=O)CSc2nnc(C)o2)cc1	0.4%	i	6%	i	2.9e-08

# Laid out differently: results already given.
> Cc1nc(SCN2C(=O)c3ccccc3C2=O)n[nH]1
  AID923: 0.0%
  Resorufin fluor: .
  TSHR ag: 4%[11.4 µM]
  A488 autofl: .
  A647 fluor: .
> CC(=O)OC1CC(C)(C)N(OC(=O)c2ccccc2)C(C)(C)C1
  AID923: -0.3%
  Resorufin fluor: i
  TSHR ag: ?
  A488 autofl: i
  A647 fluor: 1.7e-08
> COCCn1cc(C(=O)N2CCC(C)CC2)c2c3ccccc3n(C)c2c1=O
  AID923: -1.1%
  Resorufin fluor: i
  TSHR ag: 6%
  A488 autofl: i
  A647 fluor: 1e-09
> O=C(CNC(=O)c1ccco1)OCc1ccc(C(=O)Oc2ccccc2)cc1
  AID923: 2.3%
  Resorufin fluor: i
  TSHR ag: -7%
  A488 autofl: i
  A647 fluor: 1.4e-08

# Continuation:
mol	AID923	Resorufin fluor	TSHR ag	A488 autofl	A647 fluor
COC(=O)c1ccc(COc2cc(O)c3c(c2)OC(C)(C)CC3=O)cc1	0.8%	i	?	i	1.6e-08
CCOC(=O)N1CCN(C(=O)c2ccccc2NC(=O)c2ccc(OC)cc2)CC1	0.1%	i	6%	i	1.6e-08
CCN1CCN(c2ccc(NC(=O)c3cccnc3)cc2Cl)CC1	-1.8%	i	-7%	i	2.3e-09
CC(=O)c1cc(-c2ccccc2)n(CC(=O)NCc2cccs2)c1C	1.1%	i	?	i	1e-09
COC(=O)c1cc(Cl)c(NS(=O)(=O)c2ccccc2)cc1OC	-0.2%	i	1%[11.4 µM]	i	1e-09
CCOC(=O)N1CCC(Nc2c(OCC)c(=O)c2=O)CC1	-2.7%	.	0%	.	.
Cc1cc(N2CCN(C/C=C/c3ccccc3)CC2)n2ncnc2n1	0.2%	i	?	i	5.3e-09
CCN(CC)CCCC(C)n1c(-c2ccccc2)nc2c(N(CCOC)CCOC)nc(C)nc21 (stereo not given)	-0.1%	.	?	.	.
Cc1ccccc1NC(=O)CSc1nnc(Cc2cccn2C)n1-c1ccc(F)cc1	-3.7%	.	7%	.	.
COC1(OC)N=C(NC(=O)Nc2ccccc2)C2(C#N)C(c3ccccc3)C12C#N (stereo not given)	0.0%	i	4%	i	2.8e-09
CCOC(=O)CCSc1nc(C)cc(C(F)(F)F)c1C#N	1.3%	i	11%	i	1e-09
CCN(CC)S(=O)(=O)c1cc(C(=O)Nc2ccccc2C(=O)O)ccc1OC	0.2%	i	2%	i	1e-09
COC(=O)CNC(=O)COC(=O)c1cc(Cl)cc(Cl)c1N	7.1%	i	-2%	i	2.1e-08
C[C@@]12CCC(=O)C=C1CC[C@H]1[C@@H]2[C@@H](O)C[C@]2(C)[C@@H]1CC[C@@]2(O)C(=O)COC(=O)C1CCCC1	-1.0%[11.5 µM]	i	7%[11.4 µM]	i	3.8e-08
O=C(NCCN1CCN(c2ccccc2F)CC1)C1c2ccccc2C(=O)N2CCc3ccccc3C12 (stereo not given)	-2.2%	i	8%[11.4 µM]	i	2e-08
CC1CCN(C(=O)CNC(=O)Cn2ccc3ccccc3c2=O)CC1	-0.3%	.	-3%	.	.
CC1=CC(=C(C#N)c2nc3ccccc3s2)C=C(C)N1Cc1ccco1	10%	i	?	?	3.5e-08
c1ccc(CN(Cc2ccco2)C(c2ccncc2)c2nnnn2C2CCCC2)cc1 (stereo not given)	4.9%	i	?	i	3.4e-09
CS(=O)(=O)NCCSCc1ccc(Cl)cc1	-0.9%	.	-4%	.	.
CCOc1ccc(C)cc1S(=O)(=O)Nc1cccnc1	1.5%	i	5%	i	3e-09
Cc1ccccc1-c1cc(Nc2ccc(F)cc2)ncn1	-1.1%	i	-10%	i	2.7e-08
COC(=O)c1cc(NC2c3ccccc3C(=O)N2c2ccc(Cl)cn2)cc(C(=O)OC)c1 (stereo not given)	2.7%	.	6%	.	.
COC(=O)c1[nH]c(C)c(/C(O)=C2\C(=O)C(=O)N(CCN(C)C)C2c2ccc(C)o2)c1C (stereo not given)	3.0%	i	25%	i	9.4e-09
Cc1ccc(C(=O)NCCN(C)C)c(C)c1	-0.3%	i	2%	i	2.1e-08
CN1CC(=O)N/C1=N\C(=O)Nc1ccc2c(c1)N(C)C(=O)CS2	-0.7%	i	2%	i	2.6e-08
CN(C(=O)c1ccccc1C(=O)c1ccccc1)C1CCS(=O)(=O)C1 (stereo not given)	-3.7%	.	?	.	.
COc1ccc(NC(=O)/C=C\c2ccc(Cl)cc2)cc1	-1.2%	i	?	i	1e-09
COc1cc(NC(=O)C2CCC(CNc3c(N4CCCCC4)c(=O)c3=O)CC2)cc(OC)c1 (stereo not given)	-1.9%	.	-5%	.	.
CCCc1ccc(OCC(O)CN2CCN(c3ccccc3)CC2)cc1 (stereo not given)	3.8%	i	0%	i	3.7e-08
CCOc1cc(S(=O)(=O)NCc2ccccc2)ccc1F	-1.6%	i	8%	i	8.5e-09
COc1ccc(CCNC(=O)COC(=O)c2cnccn2)cc1	-0.5%	i	-2%	i	1e-09
C=CCn1c(SCC(=O)C(C)(C)C)nnc1-c1cccs1	1.2%	i	14%	i	1e-09
CC1(C)CC(=O)N(c2ccccc2)C1(C)O (stereo not given)	1.2%	.	0%	.	.
COc1cccc(C(=O)NC2CC3CCCC(C2)N3CC(=O)Nc2ccc(N(C)C)cc2)c1 (stereo not given)	-0.7%	i	-17%	i	1e-09
COc1cccc(-c2nnc(SCc3cccnc3)o2)c1	-1.2%	i	1%	i	3.2e-08
CN(c1ccc(C(=O)NCc2ccco2)cc1)S(C)(=O)=O	-1.9%	i	-4%	i	1e-09
Cc1cc2c(c(=O)n1Cc1ccccn1)C(c1ccc3c(c1)OCO3)C(C#N)=C(N)O2 (stereo not given)	.	i	.	i	1e-09
CC(C)CSC[C@@H]1O[C@H](n2cnc3c(N)nccc32)[C@H](O)[C@@H]1O	0.3%[11.5 µM]	i	5%[11.4 µM]	i	1.3e-08
